Screens from PubChem BioAssay.
VACV Venus inh – vaccinia inhibition (Venus reporter); Vaccinia virus Venus reporter expression, fluorescence; Potency, µM (series often up to 36.5 µM), for inactives: top-dose activity change, negative = inhibition, most hits filed as inhibitors; 330,000 compounds, 0.46% hits; AID 720580; active means well fitted inhibition curve with a large enough effect; inconclusive means small, poorly fitted or top-dose-only effect; inactive means no such curve, though single readings can be large or run the other way; tested in A549 cells; note: nearly all actives have a fitted effect of over 30% in size; inactives centre near -10
Vaccinia mCherry – vaccinia inhibition (mCherry reporter); Vaccinia virus mCherry reporter infection, fluorescence; about a quarter of the inactives have no number; 310,000 compounds, 0.63% hits; AID 720579; Potency, µM (titrated, usually from 36.5 µM), inactives show top-dose activity change, negative = inhibition, usual class: inhibitors; active = well fitted inhibition curve with a large enough effect; inconclusive = small, poorly fitted or top-dose-only effect; inactive = no such curve, though single readings can be large or run the other way; tested in A549 cells; note: nearly all actives have a fitted effect of over 35% in size; inactives centre near -10
Active calls of the source: *; i = inactive; ? = inconclusive; · = no result given; & = joins results of further samples; [ ] = remark or other dose. % is set by controls: 0 for no effect and ±100 for the full control effect; potency is the fitted concentration of half-maximal effect.

SMILES | VACV Venus inh | Vaccinia mCherry
COc1ccccc1NC(=O)C1=C(C)Nc2nc(SCc3ccccc3)nn2C1c1ccccn1 (configuration not stated) | 6% | -8%
Cc1nnc(NCc2cccc(Cl)c2)c2ccccc12 | -17% | -27%
CC(=O)Nc1sc2c(c1CN1CCCC1)CCCC2 | -7% | -13%
O=C(NCC1CCCCC1)c1cc(-c2cc(F)ccc2OCC2CCCO2)n[nH]1 (configuration not stated) | 3% | 26%
CC(=O)c1ccc(OCC(O)CN2CC(C)OC(C)C2)cc1 (configuration not stated) | -26% | ·
O=C(O)/C=C\C(=O)Nc1ccccc1C(=O)NCc1ccccc1 | -6% | -4%
Cc1ccoc1C(=O)NCCCNC(=O)c1occc1C | -11% | -13%
O=C(CCCSc1nc2sc3c(c2c(=O)[nH]1)CCC3)NCCCO | -19% | -25%
CC(=O)Nc1ccc(/C=C2\C=C(C(O)c3ccc(NC(C)=O)cc3)c3ccccc32)cc1 (configuration not stated) | -24% | -14%
Nc1c(-c2ccccc2)c(CN2CCOCC2)nn1-c1cccc([N+](=O)[O-])c1 | -13% | -14%
CCOc1ccc(S(=O)(=O)NCc2ccncc2)cc1NC(=O)c1ccccc1F | -20% | i
O=C(CCNS(=O)(=O)c1ccccc1)NNC(=O)C1COc2ccccc2O1 (configuration not stated) | -4% | i
O=C(CSc1nnc(-c2ccccc2F)n1CCc1ccccc1)Nc1ccc2[nH]c(=O)[nH]c2c1 | 0% | -9%
CCSc1nc2ccccc2n1CCOc1ccccc1 | ? | ?
COc1ccc(OC)c(-c2cc(C3CCN(c4cc(Cl)nc(N)n4)CC3)[nH]n2)c1 | ? | 13µM*
CCCN1CNc2c(c(=O)[nH]c(=S)n2CCc2ccc(Cl)c(Cl)c2)C1 | -14% | i
CCN1C(=O)C2(c3ccccc31)c1c(oc3ccc(C)cc3c1=O)C(=O)N2CCCOC(C)C (configuration not stated) | 0% | -2%
NC(=O)c1ccsc1NC(=O)COC(=O)CCCOc1ccccc1 | -9% | i
CC1=NN2C(=N)/C(=C\c3ccc(SCc4ccccc4)o3)C(=O)N=C2S1 | 7% | 5%
O=C1CC(N2CCC(O)(c3ccc(Cl)cc3)CC2)C(=O)N1 (configuration not stated) | -2% | -4%
CCCc1nc2ccc(C)cn2c1Cc1ccc(OC)cc1C | 1% | 18%
CCOC(=O)c1cn(CC(=O)Nc2cccc(Cl)c2C)nn1 | 1%&-11% | -5%&-11%
CC12CCCC(C(C#N)C(N)=O)(C1)NC(=O)C2C#N (configuration not stated) | -16% | -16%
Cc1cc(F)cc(-c2cc(C(=O)NCc3ccco3)[nH]n2)c1 | -8% | 35%
COC(=O)c1ccc2c(=O)n(CC3CCCO3)c(SCC(=O)Nc3ccc(OC)cc3OC)nc2c1 (configuration not stated) | 4% | -11%
c1ccc(Cc2nnc3sc(-c4cccs4)nn23)cc1 | -9% | -24%
O=C(C1=C[C@@H](c2ccc(C(F)(F)F)cc2)C[C@@H](OCc2ccc(CO)cc2)O1)N1CCOCC1 | -4% | -19%
Cc1ccc(CNc2nc3ccc(Cl)cc3n3nnnc23)cc1 | -5% | ?
Cc1ccc(S(=O)(=O)N2CCN(C(=O)c3cc(S(=O)(=O)N(C)C)ccc3N3CCCC3)CC2)c(C)c1 | -24% | ?
COc1cccc(/C=N/n2cnc3cc(C)c(C)cc32)c1OC | 1% | -3%
C[C@H](O)[C@@H]1C(=O)N2CCc3ccc(-c4cccc(F)c4)cc3[C@@H]2C[C@@H]1N(C)C(=O)Nc1ccccc1 | -6% | -11%
CCc1ccccc1NCc1cc(=O)oc2cc(C)ccc12 | 1% | -16%
COc1ccc(CC(=O)Nc2nnc(C(C)C)s2)cc1OC | -12% | -8%
COc1ccc(-c2noc(CCC(=O)Nc3ccc4c(c3)OCCO4)n2)cc1 | ? | ·
CCOC(=O)c1c(C#N)cnn1-c1ccc(C)cc1 | -11% | ·
CCOC(=O)CCCCCC(=O)Nc1ccc2c(c1)C(=O)N([C@H](C)CO)C[C@H](C)[C@@H](CN(C)C(=O)Nc1ccccc1)OCCCC[C@@H](C)O2 | -16% | 0%
CCc1ccc(S(=O)(=O)N2CCN(c3ccccc3OC)CC2)cc1 | -22% | -6%
CCOC(=O)C[C@@H]1OC2CCCCC2N1S(=O)(=O)c1ccc(C)cc1 (some centres not stated) | -23% | ?
COC(=O)[C@H](C)NC(=O)Nc1ccc(Oc2ccccc2)cc1 | -14% | -19%
Cc1c(NC(=O)/C=C/c2cn(-c3ccccc3)nc2-c2ccc(F)cc2)c(=O)n(-c2ccccc2)n1C | -16% | ?
COC(=O)c1ccc(NC(=O)CCNS(=O)(=O)c2cccc3nsnc23)cc1 | 4% | 11%
O=C(CCNC(=O)c1ccc(Br)cc1)NC1CCCc2ccccc21 (configuration not stated) | 11% | ?
Cc1cc(C)cc(C(=O)NC(=S)Nc2ccc3c(c2)OCCO3)c1 | -7% | -13%
O=C1C(Cc2ccccc2O)NC(=S)N1c1ccccc1 (configuration not stated) | -10% | -1%
O=C(Cn1nnc(-c2ccncc2)n1)Nc1ccc2c(c1)CCC2 | 2% | 4%
CCOC(=O)N1CCC(NC(=O)c2cc3c(-c4ccccc4F)nn(C)c3s2)CC1 | -6% | -7%
CN(C)c1ccc(C=NC(CO)C(O)c2ccc([N+](=O)[O-])cc2)cc1 (configuration not stated) | -15%[7.34 µM] | -3%[7.34 µM]
C/C(=N/Nc1ccc(C(=O)O)cc1)c1ccc2c(c1)Nc1ccccc1S2 | 8% | ?
COC(=O)/C=C/c1ccc(OC(=O)c2ccncc2)cc1 | -16% | i
Cc1ccc(-n2ncc3c(Nc4cccc(C)c4)ncnc32)cc1 | -2% | i
Cc1cccc(-n2c(SCC(=O)O)nc3sc4c(c3c2=O)CCC4)c1 | -5%[7.34 µM] | -12%[7.34 µM]
COc1ccc(C2=NOC(Cn3c(Cc4ccc(Cl)cc4)nc4c3c(=O)n(C)c(=O)n4C)C2)cc1 (configuration not stated) | 8% | -2%
CCN(c1cc(C)cc(C)c1)S(=O)(=O)c1nnc(NC(=O)C2CCCCC2)s1 | -27% | -23%
CCN(CC)S(=O)(=O)c1ccc(NC(=O)C2c3ccccc3Oc3ccccc32)cc1 | -14% | -4%
CCNC(=O)N(C)c1c(CC)nc2ccc(C(=O)Nc3cccc(OCC(=O)N(C)C)c3)cn12 | -11% | 20%
Cc1nc2sc(C(c3cccc(F)c3)N3CCN(C(=O)c4ccco4)CC3)c(O)n2n1 (configuration not stated) | 0% | -13%
CC(=O)Nc1ccc(-c2ccnc3c2CC(C)(C(=O)NCc2cccc(Cl)c2)O3)cc1 (configuration not stated) | -17% | -26%
Cn1c(=O)c2c(-c3ccccc3)n(C3CCCCC3)cc2n(C)c1=O | -2% | i
CCOC(=O)c1ccccc1NC(=O)c1cn(CC(C)C)c(=O)c2cc(OC)c(OC)cc12 | -20% | ?
CC(=O)c1cc(C)ccc1OC(=O)c1cccc2nc(C)oc12 | -13% | -20%

Among those listed so far, seven contain an aryl thioether with sulfur outside any ring.
SMILES | VACV Venus inh | Vaccinia mCherry
COc1ccccc1NC(=O)C1=C(C)Nc2nc(SCc3ccccc3)nn2C1c1ccccn1 (configuration not stated) | 6% | -8%
O=C(CCCSc1nc2sc3c(c2c(=O)[nH]1)CCC3)NCCCO | -19% | -25%
O=C(CSc1nnc(-c2ccccc2F)n1CCc1ccccc1)Nc1ccc2[nH]c(=O)[nH]c2c1 | 0% | -9%
CCSc1nc2ccccc2n1CCOc1ccccc1 | ? | ?
CC1=NN2C(=N)/C(=C\c3ccc(SCc4ccccc4)o3)C(=O)N=C2S1 | 7% | 5%
COC(=O)c1ccc2c(=O)n(CC3CCCO3)c(SCC(=O)Nc3ccc(OC)cc3OC)nc2c1 (configuration not stated) | 4% | -11%
Cc1cccc(-n2c(SCC(=O)O)nc3sc4c(c3c2=O)CCC4)c1 | -5%[7.34 µM] | -12%[7.34 µM]

(more compounds)
SMILES | VACV Venus inh | Vaccinia mCherry
CCS(=O)(=O)N1Cc2ccccc2CC1C(=O)Nc1nnc(SCc2c(Cl)cccc2Cl)s1 (configuration not stated) | -19% | i
COc1ccccc1NC(=O)CSCc1cc(=O)n2ccsc2n1 | 10%[7.34 µM] | 5%[7.34 µM]
O=C(c1ccc(Cn2cc([N+](=O)[O-])cn2)o1)N1CCCC1 | 1% | -11%
Cc1cc(NC(=O)c2sc(Nc3ccc(F)cc3)nc2N)no1 | -17% | ?
CN(C)C(=O)CSc1nnc(-c2cc(-c3cccs3)nc3ccccc23)o1 | 5µM* | ·
CC(O)CN1CC(O)=C(c2nc3ccccc3s2)C1=N (configuration not stated) | -9% | i
CC(C)(C)c1cc(NC(=O)Nc2ccccc2OC(F)(F)F)no1 | -24% | -3%
CCN(Cc1cnn(C)c1)C(=O)c1ccc(OC2CCN(S(=O)(=O)N(C)C)CC2)cc1 | 0% | -7%
O=C(O)c1cc(S(=O)(=O)Nc2cccc(S(=O)(=O)N3CCCC3)c2)ccc1Cl | -15% | i
CCOCc1c(C(=O)Nc2ccc(OC)nc2)oc2ccccc12 | -4% | 6%
COCCCNC(NC(=O)c1ccc(C)cc1)C(Cl)(Cl)Cl (configuration not stated) | -10% | i
CCCSCCCNC(=O)c1ccc2c(c1)sc1nc(-c3ccc(OCC)cc3)cn12 | -23% | -21%
O=C(CCNC(=O)c1ccc(Cl)cc1)NCCC1=CCCCC1 | -7% | -4%
OC1(c2cccnc2)CCN(Cc2ccc3c(c2)CN(Cc2cc(F)ccc2F)CCO3)CC1 | -3% | -16%
O=C(OCC1OC(n2cnc3c(N(C(=O)c4ccccc4)C(=O)c4ccccc4)ncnc32)C(O)C1F)c1ccccc1 (configuration not stated) | ? | ?
Cc1cccc(C=CC(=O)c2ccc(Cl)cc2)c1 | -5% | -23%
NC(=O)CSc1nnc(NC(=O)C2CC(=O)N(c3ccc(F)cc3)C2)s1 (configuration not stated) | -12% | i
Cc1nn(-c2ccccc2)c(C)c1NC(=O)COc1ccc(C#N)cc1 | -3% | i
CC(=O)Nn1c(COc2ccccc2C)nc2ccccc2c1=O | -1% | -9%
CCc1nc2c(OCC(=O)c3ccc(F)cc3)cccn2c1N(C)C(=O)COc1ccccc1 | -15% | i
Cc1ccc(/C=N/n2cnc3sc4c(c3c2=O)CCCC4)o1 | -13% | -6%
Oc1c(N=NC(=S)Nc2ccccc2F)c2ccccc2n1Cc1cccc(Cl)c1 | -22% | ?
CC(C)(C)c1ccccc1NC(=O)NC1CCN(Cc2c(F)cccc2Cl)CC1 | -4% | i
Nc1ncnc2c1ncn2[C@@H]1O[C@H](CNCc2cccc(C#Cc3ccccc3)c2)[C@@H](O)[C@H]1O | 3% | ?
CCCCOCCCn1c(-c2ccco2)nc2nc3ccccc3nc21 | -5% | -2%[1.46 µM]
COc1ccc(C(=O)NCc2n[nH]c(=S)n2-c2ccccc2)cc1OC | -9% | -3%
Cc1ccc(S(=O)(=O)N2C[C@@H]3CCCC[C@@H]3[C@@H](C)[C@H]2c2cn(Cc3ccccc3)c3ncccc23)cc1 | ? | ?
CN1C2=CC=CC=CC2=[N+](C)C12C([N+](=O)[O-])=CC(=[N+]([O-])[O-])C=C2[N+](=O)[O-] (configuration not stated) | -13% | ?
O=C(Cc1ccc(Cl)cc1)Nc1ccc(-c2cc3ccccc3oc2=O)c(Cl)c1 | ? | ?
O=[N+]([O-])c1ccc(NN=C(C2CC2)C2CC2)c([N+](=O)[O-])c1 | 0% | i
Cc1ccc(-c2c3c(nc4sc(C(N)=O)c(N)c24)CCCC3)o1 | -12% | -20%
O=C(NCCC1CCCCN1S(=O)(=O)c1ccccc1)C(=O)NCc1ccccn1 (configuration not stated) | -10% | -13%
Cc1ccc(/C=C2/C(=O)NC(=O)N(CCc3ccc(F)cc3)C2=O)s1 | -6% | -12%
CC1CCc2sc(C(=O)NCc3ccccn3)cc2C1 (configuration not stated) | -16% | -11%
Fc1ccc(Cn2c(-c3cscn3)nc3ccccc32)c(Cl)c1 | 0% | -9%
CCCCCNC(=O)Cc1ccc(S(=O)(=O)N2CCOCC2)s1 | 6% | -11%

Brought forward from above: 6 compounds; new compounds follow.
SMILES | VACV Venus inh | Vaccinia mCherry
Cc1ccc(-c2c3c(nc4sc(C(N)=O)c(N)c24)CCCC3)o1 | -12% | -20%
O=C(NCCC1CCCCN1S(=O)(=O)c1ccccc1)C(=O)NCc1ccccn1 (configuration not stated) | -10% | -13%
Cc1ccc(/C=C2/C(=O)NC(=O)N(CCc3ccc(F)cc3)C2=O)s1 | -6% | -12%
CC1CCc2sc(C(=O)NCc3ccccn3)cc2C1 (configuration not stated) | -16% | -11%
Fc1ccc(Cn2c(-c3cscn3)nc3ccccc32)c(Cl)c1 | 0% | -9%
CCCCCNC(=O)Cc1ccc(S(=O)(=O)N2CCOCC2)s1 | 6% | -11%
O=C(NC1CCCc2ccccc21)N[C@@H](Cc1ccccc1)C(=O)O (some centres not stated) | -5% | -18%
Cc1ccc(CNCCNCCO)s1 | -7% | i
O=C(NCCCN1CCOCC1)c1cnn2c(-c3ccccc3)cc(-c3ccccc3)nc12 | -14% | -9%
CCCN1CCC(=O)N(CCN=[N+]=[N-])CC1 | -6%&-15% | -23%
Cn1c(=O)oc2cc(S(=O)(=O)N3CCCC(C(=O)Nc4ccc(Br)cc4F)C3)ccc21 (configuration not stated) | -9% | -2%
O=C(O)c1ccc2nc(-c3ccccc3)sc2c1 | -6% | -20%
